Source: PubChem BioAssay (National Center for Advancing Translational Sciences (NCATS))
EPAC2 antag = human EPAC2 antagonism, validation; Q8WZA2; EPAC2 Rap1B BODIPY-GDP exchange, fluorescence; Potency, µM (doses to about 112 µM), for the others: at the top dose activity, negative = inhibition, usual class: inhibitors; hit rate 1.7% among 16,000; AID 1645886; active = well fitted inhibition curve with a large enough effect; inconclusive = small, poorly fitted or top-dose-only effect; inactive = no such curve, though single readings can be large or run the other way;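 note: 100% = activation by cAMP agonist control; nearly all actives have a fitted effect of over 40% in size; the record reuses the description of the EPAC1 agonist screen; inactives centre near -10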
Target sequence (Q8WZA2 whole entry, looked up): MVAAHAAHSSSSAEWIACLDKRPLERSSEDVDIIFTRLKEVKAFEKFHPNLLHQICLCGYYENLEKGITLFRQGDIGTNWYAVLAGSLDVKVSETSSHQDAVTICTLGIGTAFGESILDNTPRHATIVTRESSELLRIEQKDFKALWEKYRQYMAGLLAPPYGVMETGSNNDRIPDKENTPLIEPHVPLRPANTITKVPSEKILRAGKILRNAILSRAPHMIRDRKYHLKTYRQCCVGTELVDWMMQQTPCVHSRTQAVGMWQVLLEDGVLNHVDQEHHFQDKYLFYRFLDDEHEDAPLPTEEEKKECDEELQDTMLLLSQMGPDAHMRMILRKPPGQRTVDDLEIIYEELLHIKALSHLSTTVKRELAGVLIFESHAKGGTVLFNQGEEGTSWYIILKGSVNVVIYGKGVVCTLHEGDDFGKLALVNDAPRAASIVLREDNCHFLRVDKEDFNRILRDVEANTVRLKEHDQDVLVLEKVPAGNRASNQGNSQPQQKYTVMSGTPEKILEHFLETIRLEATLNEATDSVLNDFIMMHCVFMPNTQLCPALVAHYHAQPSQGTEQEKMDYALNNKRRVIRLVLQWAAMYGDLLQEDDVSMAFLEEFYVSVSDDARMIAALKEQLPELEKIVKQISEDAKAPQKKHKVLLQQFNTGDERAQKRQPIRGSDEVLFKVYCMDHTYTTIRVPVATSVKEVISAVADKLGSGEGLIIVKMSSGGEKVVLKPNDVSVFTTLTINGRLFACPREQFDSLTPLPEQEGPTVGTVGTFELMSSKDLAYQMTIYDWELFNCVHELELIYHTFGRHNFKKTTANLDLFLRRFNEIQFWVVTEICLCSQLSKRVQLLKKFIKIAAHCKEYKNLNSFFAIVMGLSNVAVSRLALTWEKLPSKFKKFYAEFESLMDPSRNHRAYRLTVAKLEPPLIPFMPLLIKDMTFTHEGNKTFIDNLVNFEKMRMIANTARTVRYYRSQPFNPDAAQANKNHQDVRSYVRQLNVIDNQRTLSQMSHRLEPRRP
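Fluorescent exchange read-out: 100 nM EPAC2 with 250 nM RAP1B–BODIPY-GDP and 50 uM GDP; BODIPY-GDP release lowers fluorescence. Read at 480/540 nm every 5 min for 30 min at room temperature; normalized to 6.5 mM cAMP.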
An asterisk follows results filed as active; ? = inconclusive; & = joins results of further samples; [ ] = dose if it differs, or a comment. Potency is the fitted concentration of half-maximal effect. Some of the compounds tested, so the mix of outcomes need not match the whole.

SMILES	EPAC2 antag
CN(C)c1ccc(C(=C2C=CC(=[N+](C)C)C=C2)c2ccccc2)cc1	-0.9%
CCOc1ccc(C(=O)c2ccc(OC)c(O)c2O)cc1	-18.7%
O=C(Nc1cccc(F)c1)N1CC2(CCN(C(=O)c3ccncc3)CC2)C1	0.3%
CN(C)C(=O)c1ccc(-c2cc(-n3ccnc3)ncn2)cc1	-3.6%
O=C(O)CCC/C=C\C[C@@H]1[C@@H](/C=C/[C@H](O)C2Cc3ccccc3C2)[C@@H](F)C[C@@H]1O	-8.7%
O=C(C[n+]1cccc2cccc(O)c21)c1ccccc1	53.4%[activator]
COc1ccc(S[C@@H](CCN2CC[C@H](C)CCC2=O)c2ccccc2)cc1	?
O=C(O)c1cc(=O)c2ccc(Cl)cc2[nH]1	-14.0%&-14.6%
CC(C)n1cnc2c(NCc3ccccc3)nc(NCCO)nc21	-15.2%
COc1cc(-c2oc3cc(O)ccc3c(=O)c2O)ccc1O	-6.3%
COc1cc2ccc(=O)oc2c(OC)c1OC	-11.5%
O=C(O)c1c(Cl)c(Cl)c(Cl)c(Cl)c1-c1c2cc(I)c(=O)c(I)c-2oc2c(I)c(O)c(I)cc12	77.2%[activator]
Cc1cccc(C(=O)NCN2CCN(c3ccccc3C#N)CC2)c1	-22.4%&-18.3%&-29.5%
CC1CCC(C(C)C)[C@H](O)C1 (some centres undefined)	-3.2%
O=C(c1nc2ncccn2n1)N1CCOc2ccc(C(O)C(c3ccccc3)c3ccccc3)cc2C1 (centres undefined)	?
O=C(/C=C/c1ccc2c(c1)OCO2)c1cccs1	-24.6%
CN(C)c1ccc(/C=C2\C(=O)/C(=C\c3ccc(N(C)C)cc3)c3ccccc32)cc1	-3.8%
Cn1cnc2c(F)c(Nc3ccc(Br)cc3Cl)c(C(=O)NOCCO)cc21	?
CC(NC(=O)c1cc(F)ccc1F)c1nnc2n1CCN(Cc1ccccc1O)CC2 (centres undefined)	?
O=C(O)c1ccccc1-c1ccc(C(F)(F)F)cc1	-4.2%

4 entries from above, field by field.
> CN(C)C(=O)c1ccc(-c2cc(-n3ccnc3)ncn2)cc1
  EPAC2 antag = -3.6%
> O=C(O)CCC/C=C\C[C@@H]1[C@@H](/C=C/[C@H](O)C2Cc3ccccc3C2)[C@@H](F)C[C@@H]1O
  EPAC2 antag = -8.7%
> O=C(C[n+]1cccc2cccc(O)c21)c1ccccc1
  EPAC2 antag = 53.4%[activator]
> COc1ccc(S[C@@H](CCN2CC[C@H](C)CCC2=O)c2ccccc2)cc1
  EPAC2 antag = ?

(more compounds)
SMILES	EPAC2 antag
Cn1cccc1C(=O)N1CCC[C@@]2(CCN(c3cccc(-c4ccccc4)c3)C2)C1	-28.9%
C[C@@H](C[C@H](N)C(=O)O)C(=O)O	-6.9%
CCC(C(N)=O)c1ccccc1 (centres undefined)	-5.3%
Cc1nc2cnc(N3CCN(C)CC3)nc2n(C)c1=O	10.5%
Cc1c(C(=O)NCC2CC2)sc2ncnc(NCCN3CCCCC3)c12	10.4%
O=C1CCc2c(ccc3ccccc23)O1	?
O=C(/C=C/c1ccc(O)c(O)c1)NC(=O)c1ccccc1O	14.3%
COC(=O)N1CCC2(CCN(C(=O)Nc3ccc(OC)cc3)CC2)CC1	-13.7%
Cn1c(=O)c(-c2ccc(Cl)cc2)nc2cnc(N3CCNCC3)nc21	-0.5%
Cc1ncc(-c2ccc(F)cc2)c(C2CCCN(Cc3cccc(O)c3)C2)n1 (centres undefined)	?
N#Cc1cccc(NC(=O)N2CC[C@@]3(CCCN(C(=O)c4ccco4)C3)C2)c1	-25.0%
CN(C)c1ncc2nc(-c3ccc(Cl)cc3)c(=O)n(C[C@H]3CCCO3)c2n1	-13.7%
OCC1=CC[N+]2(Cc3ccccc3)CCC(O)[C@@H]12 (some centres undefined)	-10.1%
CS(=O)(=O)Nc1cccc(-c2cncnc2NCc2ccccc2)c1	-12.7%
O=c1c(-c2cc(F)cc(F)c2)nc2cnc(N3CCNCC3)nc2n1Cc1ccc(F)cc1	50.1µM*
COc1ccc(OC)c(-c2cc(Cl)c3c(c2)CC(CNC(=O)/C=C/c2ccccn2)O3)c1 (centres undefined)	-27.4%
CC[C@H](C)[C@H](NC(=O)[C@H](CCCN=C(N)N)NC(=O)[C@H](CCCN=C(N)N)NC(=O)[C@H](CC(C)C)NC(=O)[C@H](Cc1ccccc1)NC(=O)CNC(=O)CN)C(=O)N[C@@H](CCCN=C(N)N)C(=O)N1CCC[C@H]1C(=O)N[C@@H](CCCCN)C(=O)N[C@@H](CC(C)C)C(=O)N[C@@H](CCCCN)C(=O)O	?
CCOC(=O)C1=C(COCCN)NC(C)=C(C(=O)OC)C1c1ccccc1Cl (centres undefined)	-3.9%&-13.8%
CCOC(=O)/C=C1\CN(Cc2ccc(OC)cc2)S(=O)(=O)c2ccc(C(F)(F)F)cc21	?
C[C@@H]1CCC2[C@](C)(CO)[C@@H](O)CC[C@]2(C)[C@]12CCC(CO)(CCO)O2 (some centres undefined)	26.4%

Quoted at random: five compounds from above, in no set order.
SMILES	EPAC2 antag
O=C(c1nc2ncccn2n1)N1CCOc2ccc(C(O)C(c3ccccc3)c3ccccc3)cc2C1 (centres undefined)	?
COC(=O)N1CCC2(CCN(C(=O)Nc3ccc(OC)cc3)CC2)CC1	-13.7%
OCC1=CC[N+]2(Cc3ccccc3)CCC(O)[C@@H]12 (some centres undefined)	-10.1%
COc1ccc(S[C@@H](CCN2CC[C@H](C)CCC2=O)c2ccccc2)cc1	?
O=C(O)c1ccccc1-c1ccc(C(F)(F)F)cc1	-4.2%

Following part:
SMILES	EPAC2 antag
CCCCC(CC)COC(=O)c1ccc(N(C)C)cc1 (centres undefined)	-28.0%
C[C@]12CCC(=O)C=C1CC[C@@H]1[C@H]2[C@@H](O)C[C@@]2(C)[C@H]1CC[C@]2(O)C(=O)CO	30.9%
Cc1cnc(CNc2ncncc2-c2cccc(C#N)c2)cn1	-8.4%
CNCCc1ccccn1	1.1%
O=S(=O)(NCc1ccc(F)cc1)c1ccc(Br)cc1Br	?
C=CC(C)(O)CCCC(C)CCCC(C)CCCC(C)C (centres undefined)	-21.5%
Cc1ccnn1CC(=O)N1CCOc2c(cc(-c3csc4ccccc34)cc2OC2CCOC2)C1 (centres undefined)	?
CC(C)(C)Cn1nc(-c2ccc(Cl)cc2)c2c(N)ncnc21	-19.8%
CCN(CC)C(=O)[C@]1(c2ccccc2)C[C@@H]1CN	8.3%
CN(C)c1ccc(-c2cncnc2N(C)Cc2ccco2)cc1	-39.4%
NCCCC[C@H](N[C@@H](CCc1ccccc1)C(=O)O)C(=O)N1CCC[C@H]1C(=O)O	-39.1%[56.6 µM]
N#CCCn1c(=O)c(-c2cccc(C#N)c2)nc2cnc(Oc3cccc(Cl)c3)nc21	-19.8%
Fc1ccc(C(c2ccc(F)cc2)N2CCN(CC=Cc3ccccc3)CC2)cc1	-21.9%
CN1CCN(c2ncc3nc(-c4ccc(Cl)cc4)c(=O)n(Cc4cccs4)c3n2)CC1	-12.0%
COc1cccc(-n2c(SC)nnc2C2CCN(Cc3cccc(OC)c3O)CC2)c1	-2.5%
CC(C)(O)C1CC[C@@]2(C)C3CCC4[C@@]5(C)CCCC(C)(C)C5C(O)C[C@]4(C)[C@]3(C)CC[C@@H]12 (some centres undefined)	-3.5%
COc1cc(=O)n2c(c1C(=O)NC(C)c1ccco1)CCN(C(=O)c1cc(C)cc(C)c1)CC2 (centres undefined)	-8.3%
COc1cccc2c1CCC1=CC(=O)CC[C@@]12C	-17.6%
O=C(/C=C/c1ccccc1)OCc1ccccc1	-14.8%
CCCCCCCCCCCCN1[C@@H](CC(=O)O)c2cc(C(F)(F)F)ccc2S1(=O)=O	?
N[C@@H](CO)C(=O)O	-16.3%&-23.7%
O=C(CCCN1CCC(O)(c2ccc(Cl)cc2)CC1)c1ccc(F)cc1	?
CN(C)c1ncc2nc(-c3ccc(Cl)cc3)c(=O)n(C3CC3)c2n1	-22.1%
CCCC[C@H]1COCCS(=O)(=O)N1Cc1ccc(Br)cc1	?
CC(CC=O)CCCC(C)(C)O (centres undefined)	27.6%
COc1ccccc1CNc1ncncc1-c1cccc(C#N)c1	?
COc1ccc(NC(=O)N2CC[C@@]3(CCCN(C(=O)c4cnccn4)C3)C2)cc1	-10.3%
CC(C)CCC[C@@H](C)[C@H]1CC(=O)C2=C3CC[C@H]4C[C@@H](O)CC[C@]4(C)[C@H]3CC[C@@]21C	5.4%
COc1cccc(-c2nc(N3CCN(C)CC3)c3ccccc3n2)c1	-15.3%
COCC(=O)Nc1cc(C(=O)NC2C3CC4CC2CC(O)(C4)C3)cc2nc(-c3ccccc3)n(C)c12 (centres undefined)	4.3%
N#Cc1ccc2c(c1)N(CCCN1CCC(O)CC1)c1ccccc1S2	-0.3%
COC(=O)N1CCC2(CCN(C(=O)Nc3cccc(C#N)c3)CC2)CC1	-20.7%
Cc1cccc(CNc2ncnc3ccc(-c4cccc(NS(C)(=O)=O)c4)cc23)c1	-18.9%
COc1ccc(CN2CCN(C(C)=O)CC2)cc1OC1CCN(C(=O)c2ccc3ccccc3n2)CC1	-33.9%
CC(=O)C(C)=O	15.1%
CC(C)NC(=O)N1CC[C@@]2(CCCN(C(=O)c3cnccn3)C2)C1	-12.5%
Fc1ccc(Nc2nc(-c3cccnc3)nc3ccccc23)cc1	-0.2%
Cc1cccc(CNc2ncncc2-c2ccc3c(c2)OCO3)c1	-22.8%
CNc1ccnc(-c2ccccc2OC)n1	-13.3%
CN1CCN(c2ncc3nc(-c4cn(C)c5ccccc45)c(=O)n(C[C@H]4CCCO4)c3n2)CC1	17.4%
COc1ccc(O)c(CN2CCC3(CC2)c2ccccc2[C@@H](NC(=O)c2cccc(F)c2)[C@@H]3OC)c1	-3.1%
CC(=O)NCCNc1ncncc1-c1ccccc1CN(C)C	-10.8%
Cc1ncnc2nc[nH]c12	-3.1%
O=C(O)CNC(=O)CNC(=O)CNC(=O)CSC(=O)c1ccccc1	-29.3%
COc1ccc2c(c1)c(CC(=O)O)c(C)n2C(=O)c1ccccc1	-9.5%
CCCCCCCCCCCCCCCC[N+](C)(C)CC	56.2µM*
Cc1cccc(Nc2ncccc2C(=O)O)c1C	0.1%
CNC1CCC(c2ccc(Cl)c(Cl)c2)c2ccccc21 (centres undefined)	-2.9%
COc1ccc(CN2CC[C@H]3C=CC[C@@H](C(=O)NC4CCCCC4)[C@H]3C2=O)cc1OC	?
Cc1nc(C(=O)N(Cc2cc3ccc(F)cc3nc2N2CCC(O)CC2)CC2CCCO2)cs1 (centres undefined)	-5.4%
Cc1ccc(SCCN2CCC(NC(=O)OCc3ccccc3)CCC2=O)cc1 (centres undefined)	?
COc1cc(O)cc(O)c1	27.0%
CN(C)CCN(Cc1ccc(Cl)cc1)c1ccccn1	63.2%[activator][56.6 µM]
CCC(C)(C)OC(=O)N[C@@H](Cc1c[nH]c2ccccc12)C(=O)N[C@@H](CCSC)C(=O)N[C@@H](CC(=O)O)C(=O)N[C@@H](Cc1ccccc1)C(N)=O	76.5%[activator]
C=CCN(c1ccc(Br)cc1C(=O)OC)S(C)(=O)=O	?
CNc1cc(OC)c(C(=O)N[C@H]2CCN(Cc3ccccc3)[C@H]2C)cc1Cl	?
CCCCCC1C(=O)CCC1CC(=O)OC (centres undefined)	?
COc1cc2c3cc1Oc1cc(ccc1O)C[C@@H]1c4c(cc(OC)c(O)c4Oc4ccc(cc4)C[C@@H]3N(C)CC2)CC[N+]1(C)C	?
O=C(O)CCC/C=C\C[C@@H]1CO[C@H](C(F)(F)F)O[C@@H]1c1ccccc1O	?
COCCNc1nc(-c2cccc(NS(C)(=O)=O)c2)nc2ccccc12	-30.7%
Later entries.
SMILES	EPAC2 antag
O=c1c(CCc2ccccc2)nc2cncnc2n1Cc1ccccc1	-10.9%
Cc1nnsc1C(=O)NCC1Cc2cccc(-c3ncccn3)c2O1 (centres undefined)	-26.0%
C/C=C(/C)C(=O)OC1C(OC(C)=O)[C@@]2(CO)C(O)C[C@@]3(C)C(=CCC4[C@@]5(C)CCC(OC6OC(C(=O)O)[C@@H](O[C@@H]7OC(CO)C(O)C(O)C7O)C(O)[C@H]6O[C@@H]6OC(CO)C(O)C(O)C6O)[C@](C)(CO)C5CC[C@@]43C)C2CC1(C)C (some centres undefined)	-10.4%
O=C(O)c1[nH]n(-c2ccc(S(=O)(=O)O)cc2)c(=O)c1N=Nc1ccc(S(=O)(=O)O)cc1	?
O=c1c(-c2cc(F)cc(F)c2)nc2cnc(Nc3ccccc3)nc2n1C[C@H]1CCCO1	14.0%
CC(O)c1nc2ccccc2[nH]1 (centres undefined)	-2.2%
CC12CCC3c4ccc(OCc5ccccc5)cc4CCC3C1CC(O)C2O (centres undefined)	-11.7%
OC[C@@H](O)C(O)[C@H](O)CO	?
COc1ccc(CN2C[C@H](C)[C@@H](CC(=O)NCc3ccccc3)C2=O)cc1	30.0%[activator]
C=C(C)C1CC=C(C)CC1 (centres undefined)	-8.5%
N#CCCn1c(=O)c(-c2ccccc2)nc2cnc(OCc3ccccc3)nc21	-24.8%
CC(C)(C)CC(C)(C)N=C1Nc2ccccc2NC12C[C@H]1CCC(=O)N3CC[C@@H](C2)[C@@H]13 (some centres undefined)	?
Cc1nc2cnc(Oc3cccc(Cl)c3)nc2n(C[C@H]2CCCO2)c1=O	?
Cc1ncc2c(c1CNS(=O)(=O)N(C)C)CCN(C(=O)c1ccccc1F)C2	-14.3%
O=C1CCN(CCc2ccccc2)CCN1CCSc1ccccc1	?
CN(Cc1ccco1)c1cc(-c2ccc3c(c2)OCO3)ncn1	-19.7%
